TRPV1 potentiator: HTS Assay for Compounds that Act as Potentiators of the Vanilloid Receptor 1; Transient receptor potential cation channel subfamily V member 1 (Homo sapiens), Q8NER1; TRPV1-expressing cells, Fluo-8 calcium influx, capsaicin EC20 potentiation; host cell line not named in the record; control for the full effect not named in the record; potentiation, % at 8.33 µM; hit rate 0.02% among 320,000; active means potentiation above 80%; inconclusive means 30% to 80%; inactive means below 30%; further: 0% is about no effect
Target sequence (Q8NER1 whole entry, looked up): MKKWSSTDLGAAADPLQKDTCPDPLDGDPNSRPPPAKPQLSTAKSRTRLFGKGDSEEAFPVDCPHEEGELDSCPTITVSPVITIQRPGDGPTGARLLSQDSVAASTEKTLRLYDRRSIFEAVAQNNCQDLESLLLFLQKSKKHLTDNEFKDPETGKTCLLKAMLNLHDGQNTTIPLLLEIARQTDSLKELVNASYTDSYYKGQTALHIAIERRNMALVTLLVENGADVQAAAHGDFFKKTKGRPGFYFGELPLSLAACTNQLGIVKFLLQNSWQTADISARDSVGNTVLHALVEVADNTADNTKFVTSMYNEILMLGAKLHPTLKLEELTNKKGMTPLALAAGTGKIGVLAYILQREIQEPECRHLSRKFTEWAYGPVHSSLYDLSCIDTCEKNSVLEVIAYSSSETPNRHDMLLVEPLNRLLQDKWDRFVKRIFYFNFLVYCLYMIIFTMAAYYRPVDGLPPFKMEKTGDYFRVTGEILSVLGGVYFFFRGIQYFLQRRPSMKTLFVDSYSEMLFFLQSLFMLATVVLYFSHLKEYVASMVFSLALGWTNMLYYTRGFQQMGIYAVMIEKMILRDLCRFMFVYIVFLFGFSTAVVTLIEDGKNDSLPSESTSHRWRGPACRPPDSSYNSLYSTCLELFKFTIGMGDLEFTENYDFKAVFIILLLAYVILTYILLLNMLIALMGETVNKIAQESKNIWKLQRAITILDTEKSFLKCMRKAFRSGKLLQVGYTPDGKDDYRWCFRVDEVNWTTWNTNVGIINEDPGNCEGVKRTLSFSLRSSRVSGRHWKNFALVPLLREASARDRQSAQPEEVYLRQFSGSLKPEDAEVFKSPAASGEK
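TRPV1-expressing cells were cultured overnight at 35.5C and loaded with Fluo-8 calcium dye for 40 to 90 min at room temperature. After a 10 s baseline, compound was added and calcium influx was read kinetically for 3 min (ex 480/em 520 nm).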
gsp antagonist: qHTS for Antagonists of gsp, the Etiologic Mutation Responsible for Fibrous Dysplasia/McCune-Albright Syndrome: qHTS; gsp-mutant cells, cAMP HTRF, 30 min; control for the full effect not named in the record; Potency, µM (top dose mostly 76.9 µM), without a hit: at the top dose activity change, negative = inhibition, usual class: inhibitors; hit rate 0.4% among 340,000; AID 624288, 2012; active = falling curve of any shape with a large fitted effect; inconclusive = falling curve, mostly with a smaller effect; inactive = flat or rising curve; cell line not stated here;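 further: intracellular cAMP measured with PDE inhibitor Ro 20-1724 present during compound exposure; potency means the concentration at half of the fitted maximal effect; on the % scale 0 is the no-effect control and ±100 the full control effect; nearly all actives have a fitted effect of over 65% in size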
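Measurement of cellular cAMP by homogeneous time-resolved fluorescence following a 30 min compound exposure at 37C. The PDE inhibitor […] was present throughout; the assay buffer was DPBS with 0.05% BSA and 0.005% Tween 20.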
Sfp inh: qHTS Assay for Inhibitors of Bacillus subtilis Sfp phosphopantetheinyl transferase (PPTase); AID 1490, 2009; hit rate 3.5% among 310,000; Potency, µM, inactives show max response, negative = inhibition, hits mostly inhibitors; 4'-phosphopantetheinyl transferase ffp (Bacillus subtilis), Q9F4F7; Biochemical Sfp PPTase activity, qHTS; active means well fitted inhibition curve with a large enough effect; inconclusive means small, poorly fitted or top-dose-only effect, or another doubt; inactive means no such curve, though single readings can be large or run the other way;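 further: the enzyme is Sfp with the accession as filed and its product quenches rhodamine fluorescence; potency means the concentration at half of the fitted maximal effect; 0% = enzyme reaction without inhibitor and -100% = no enzyme wells; top concentration of the series not given in the record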
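Step 1, compound plus 15 nM Sfp-PPTase, 15 min, room temperature. Step 2, add rhodamine-CoA (5 uM) and BHQ-2-YbbR (12.5 uM). Step 3, read 525/598 nm fluorescence at 0 and 30 min.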
gsp ag: qHTS for Agonist of gsp, the Etiologic Mutation Responsible for Fibrous Dysplasia/McCune-Albright Syndrome: qHTS. gsp mutant cells, cAMP HTRF, 30 min; control for the full effect not named in the record. Potency, µM (titrated, usually from 76.9 µM), for the others: top-dose activation (cAMP increase), hits mostly activators. hit rate 0.13% among 340,000; active = well fitted activation curve with a large enough effect; inconclusive = small, poorly fitted or top-dose-only effect, or another doubt; inactive = no such curve, though single readings can be large or run the other way; cell line not stated here;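 further: phosphodiesterase inhibitor Ro 20-1724 added with compounds to block cAMP breakdown; potency means the concentration at half of the fitted maximal effect; nearly all actives have a fitted effect of over 60% in size; about a fifth of the inactives were tested at one dose only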
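Cells in DMEM/10% FBS with G418 were pretreated with compounds in DMSO plus […] (300 uM stock) for 30 min at 37C. cAMP was measured by HTRF (cAMP-d2 plus anti-cAMP antibody-K) after 30 min at room temperature.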
ClpP mod: qHTS Assay for Activators of ClpP; purified B. subtilis ClpP, FRET peptide cleavage, 20 min; Potency, µM (top dose mostly 57.5 µM), without a hit: at the top dose activity change, negative = active; hit rate 1.9% among 340,000; AID 651965, 2013; active = well fitted falling curve with a large enough effect; inconclusive = small, poorly fitted or top-dose-only effect; inactive = no such curve, though single readings can be large or run the other way; further: potency means the concentration at half of the fitted maximal effect; the source files actives as falling curves though it sought activators and does not explain the sign; nearly all actives have a fitted effect of over 65% in size; many hits overshoot -100%
Target sequence (P80244 whole entry, looked up): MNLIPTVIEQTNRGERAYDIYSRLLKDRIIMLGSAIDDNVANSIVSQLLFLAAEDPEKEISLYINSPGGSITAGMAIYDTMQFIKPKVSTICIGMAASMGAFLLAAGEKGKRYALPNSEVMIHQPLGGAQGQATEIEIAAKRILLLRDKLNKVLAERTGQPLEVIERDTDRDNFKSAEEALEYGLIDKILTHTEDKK
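Buffer: 100 mM Tris/HCl pH8, 100 mM KCl, 0.05% low protease BSA, 2.5% glycerol, 0.01% Tween-20. ClpP 10 microg/mL final; 20 min RT; delta FRET normalized to ADEP and DMSO controls.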
CtBP-E1A inh: qHTS Assay for Inhibitors of the CtBP/E1A Interaction | AID 651724, 2012 | activity change, % (test concentration not listed) | AlphaScreen GST-E1A/His-CtBP binding, 1536-well; hits give low values; control for the full effect not named in the record | hit rate 0.49% among 340,000; in the data active means activity change below about -65%; inconclusive means about -30% to -65%; inactive means above about -30%; further: on the % scale 0 is the no-effect control and ±100 the full control effect; compound concentration not given in the record
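In 5 uL wells, 23 nL compound meets equimolar GST-E1A and His-CtBP (5X stock 125 nM each) for 2 h, 37 °C. Beads (5X, 50 ug/mL) then 1 h, 37 °C, dark.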
Menin MLL FP FL: qHTS Assay for Inhibitors Targeting the Menin-MLL Interaction in MLL Related Leukemias: Competition With Fluorescein Labeled MLL-derived Peptide; Fluorescence polarization, fluorescein-MLL peptide displacement from menin; FP activity change, % at 61.4 µM; 290,000 tested, under 10 active; AID 1766, 2009; inconclusive = falling polarisation curve, or a change in total fluorescence; inactive = total fluorescence flat and polarisation flat or rising; no compound was filed as active; the % refers to the polarisation; negative = inhibition;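 further: % of control where 0% means no effect; inhibitors lower the polarisation; unlabelled MLL peptide was the positive control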
* hit, by the source's call; u = inconclusive; x = not tested or not shown; [ ] = dose if it differs, or a comment.

1) COCCN(C(=O)CSc1nc2ccccc2s1)c1c(N)n(Cc2ccccc2)c(=O)[nH]c1=O
2) CCn1c(SCC(=O)Nc2ccc(S(N)(=O)=O)cc2)nnc1-c1cccc(OC)c1
3) S=C(NCc1ccc(Cl)c(Cl)c1)NCc1ccco1
4) COc1ccc(-c2nc(C)sc2C)cc1
5) CCOC(=O)c1ccc(N2C(=O)CC(N3CCC(O)(c4ccc(Br)cc4)CC3)C2=O)cc1 (stereo not given)
6) Cc1c(C(=O)NCCN2CCOC2=O)oc2c(F)cccc12
7) Cc1cccc(Cn2nc(C)c(NC(=O)c3ccc(F)cc3)c2C)c1
8) COC(=O)CSc1ncccc1-c1nc2ccccc2[nH]1
Compound	1	2	3	4	5	6	7	8
TRPV1 potentiator	x	30	-3	11	7	-4	-7	-13
gsp antagonist	-6%	10%	4%	9%	-12%	10%	15%	3%
Sfp inh	x	23%	8%	11%	6%	15%	17%	4%
gsp ag	7%	7%	20%	20%[15.4 µM]	6%	0%	13%	22%
ClpP mod	-6.0%	-1.0%	-0.2%	x	0.9%	-4.5%	x	u
CtBP-E1A inh	-6	0	-6	-7	7	-10	-10	-3
Menin MLL FP FL	x	1.4	2.7	7.0	-0.3	-14	2.5	1.3

9) COc1cccc(-c2nnc(-c3ccc4ccccc4c3)o2)c1
10) Cn1c(=O)c2c(ncn2CC(=O)OCC(=O)NCc2ccccc2Cl)n(C)c1=O
11) COc1ccc(N2CCN(C(=O)c3ccccc3F)CC2)c([N+](=O)[O-])c1
12) CCCCc1c(O)nc(SCC(=O)c2ccccc2)n(-c2ccccc2C)c1=O
13) O=C(Nc1ccc(Cl)c(Cl)c1)Nc1nc(-c2ccccc2)cs1
14) CC1(C)C(=O)NCCN1C(=O)c1ccc2nc(Cc3ccccc3F)oc2c1
15) Cc1nc2ncnn2c(N2CCN(C(=O)c3cccc(F)c3)CC2)c1Cc1ccccc1
16) O=C(COc1ccccc1Cl)NC1CC1
Compound	9	10	11	12	13	14	15	16
TRPV1 potentiator	x	1	-10	-2	5	2	-4	2
gsp antagonist	-11%	-8%	-8%	u	-16%	0%	-8%	-2%
Sfp inh	x	0%	-1%	-11%	17%	13%	10%	10%
gsp ag	-62%[inhibitor]	16%[15.4 µM]	20%	-1%[15.4 µM]	-19%	-11%	0%	u
ClpP mod	14µM*	58%	0.5%	42%	-2.2%	-21%	-0.5%	0.3%
CtBP-E1A inh	10	10	-8	3	-7	17	3	7
Menin MLL FP FL	x	6.4	-0.1	1.8	0.1	x	0.3	x

17) CC1CCCC(NC(=O)c2ccc3c(c2)OCO3)C1C (stereo not given)
18) Cc1cc(=O)oc2cc(NC(=O)C(C)Oc3ccc(F)cc3)ccc12 (stereo not given)
19) COc1ccc(CN2CCc3ccccc3C2)c(OC)c1
20) CC(C)C(=O)N1CCN(c2ccccc2NC(=O)c2ccc(Br)o2)CC1
21) Cc1cc(-c2c(C)[nH]n(-c3ccc(Cl)cc3)c2=O)n(-c2ccccc2)n1
22) COc1ccc(CCNC(=O)c2ccc(N3CCCC3=O)cc2)cc1
23) CCOC(=O)N1CCN(C(=O)c2cn(CC)c3cc(N4CCN(C)CC4)c(F)cc3c2=O)CC1
24) COc1cc2ccccc2cc1C(=O)Nc1ccc(N2CCN(C(=O)C(C)C)CC2)cc1
Compound	17	18	19	20	21	22	23	24
TRPV1 potentiator	-16	6	0	x	21	-2	4	0
gsp antagonist	-2%	-14%	-12%	u	u	12%	x	-26%
Sfp inh	x	x	-19%	x	21%	2%	0%	-19%
gsp ag	7%[15.4 µM]	6%	-1%[15.4 µM]	11%	-4%	20%	x	u
ClpP mod	x	u	x	x	-5.2%	4.0%	x	0.9%
CtBP-E1A inh	2	1	8	-5	-7	2	x	x
Menin MLL FP FL	x	x	0.0	x	1.0	0.5	-4.3	x

One compound at a time, as listed above. Screens in order: TRPV1 potentiator	gsp antagonist	Sfp inh	gsp ag	ClpP mod	CtBP-E1A inh	Menin MLL FP FL
Results for COc1ccc(CN2CCc3ccccc3C2)c(OC)c1 → 0	-12%	-19%	-1%[15.4 µM]	x	8	0.0
Results for Cc1cc(-c2c(C)[nH]n(-c3ccc(Cl)cc3)c2=O)n(-c2ccccc2)n1 → 21	u	21%	-4%	-5.2%	-7	1.0

Given with two lines to a compound: part of the list above
Values run as follows: TRPV1 potentiator, gsp antagonist, Sfp inh, gsp ag, ClpP mod, CtBP-E1A inh, Menin MLL FP FL
1	COCCN(C(=O)CSc1nc2ccccc2s1)c1c(N)n(Cc2ccccc2)c(=O)[nH]c1=O
→ x, -6%, x, 7%, -6.0%, -6, x
2	CCn1c(SCC(=O)Nc2ccc(S(N)(=O)=O)cc2)nnc1-c1cccc(OC)c1
→ 30, 10%, 23%, 7%, -1.0%, 0, 1.4
3	S=C(NCc1ccc(Cl)c(Cl)c1)NCc1ccco1
→ -3, 4%, 8%, 20%, -0.2%, -6, 2.7

Continued.
25) O=C(CN(c1cccc(Cl)c1)S(=O)(=O)c1ccc(Cl)cc1)NCc1ccccn1
26) COc1cccc(-c2cc(C(=O)NCC3CCCO3)c3ccccc3n2)c1 (stereo not given)
27) O=c1[nH]ncc(NCCCO)c1Cl
28) O=C(CCn1nnc2ccccc21)Nc1nnc(COc2ccccc2F)s1
29) COc1ccc(CCNC(=O)c2cc3c(C)nccc3[nH]c2=O)cc1OC
30) c1ccc2c(c1)nc1n2CCN1
31) Cc1cc(=O)oc2cc(OCC(=O)OCC(=O)NC(C)C)ccc12
32) CCC1(C)CN=C(c2ccccc2)NC1 (stereo not given)
Compound	25	26	27	28	29	30	31	32
TRPV1 potentiator	-13	4	-5	9	-1	-10	-4	x
gsp antagonist	-10%	-17%	-7%	1%	4%	10%	-24%	8%
Sfp inh	4%	-16%	8%	-15%	6%	-8%	16%	x
gsp ag	-8%	9%	u	-2%	1%[15.4 µM]	-17%	-1%[15.4 µM]	2%[15.4 µM]
ClpP mod	0.0%	-4.4%	-4.6%	-0.3%	x	-0.6%	-30%	1.7%
CtBP-E1A inh	-9	-7	6	6	4	9	0	7
Menin MLL FP FL	x	9.1	2.0	-3.8	-0.5	2.8	4.0	x

As entered above:
Reading of no. 32 under ClpP mod: 1.7%
Reading of no. 29 under TRPV1 potentiator: -1
Reading of no. 26 under TRPV1 potentiator: 4

Results in sequence from the entries so far:
Entries 25 to 32 in gsp ag read -8%, 9%, u, -2%, 1%[15.4 µM], -17%, -1%[15.4 µM], 2%[15.4 µM]
Entries 25 to 32 in ClpP mod read 0.0%, -4.4%, -4.6%, -0.3%, x, -0.6%, -30%, 1.7%

Remaining list, next part:
33) CC(=O)C1=C(O)C(=O)N(c2ccccn2)C1c1cccc(F)c1 (stereo not given)
34) O=C(CCc1nnc(CCC2CCCCC2)o1)NCCn1cccn1
35) COC(CNC(=O)c1cnn2c(C)c(Cc3ccccc3)c(C)nc12)OC
36) CCOc1ccc(S(=O)(=O)Nc2cc(OC)c(OC)cc2C(=O)O)cc1
37) O=C(CNC(=O)OCc1ccccc1)NC(Cc1cnc[nH]1)C(=O)O (stereo not given)
38) Cc1ccc(Nc2cc(C)nc(N3CCOCC3)n2)cc1
39) CCCc1nnc(NC(=O)CCC(=O)N2CCN(Cc3cc(F)ccc3OC)CC2)s1
40) Nc1c(-c2cccc(Cl)c2)cnn1-c1ccccc1
Compound	33	34	35	36	37	38	39	40
TRPV1 potentiator	17	-13	-38	1	x	-10	9	-6
gsp antagonist	-7%	1%	-9%	-1%	11%	-4%	14%	-21%
Sfp inh	-14%	13%	-13%	19%	x	-3%	9%	4%
gsp ag	u	7%	-8%[15.4 µM]	-27%	u	u	5%	23%
ClpP mod	-8.8%	-1.9%	-1.8%	u	0.8%	-6.3%	0.4%	x
CtBP-E1A inh	4	2	-15	1	6	6	x	0
Menin MLL FP FL	14	1.7	0.3	-1.6	x	-2.4	x	-4.5

41) Nc1cccc(NP(=O)(c2ccccc2)c2ccccc2)c1
42) Cc1ccc(-n2nc(C)cc2NC(=O)CC#N)cc1
43) CCOC(=O)c1c(CSc2ccccc2)n(C)c2cc(Br)c(OCC(O)CNC(CO)(CO)CO)cc12 (stereo not given)
44) CC/C(=N/Nc1ccccc1)c1cnnc(-c2ccccc2)n1
45) CCOC(=O)CNC1CC(=O)N(c2ccc(Br)cc2)C1=O (stereo not given)
46) COc1cccc(/C=C/C(=O)Oc2ccc(C(=O)c3ccc(F)cc3)cc2)c1
47) CC1(C)OC(=O)NC1c1ccccc1 (stereo not given)
48) O=C(NCCOc1ccccc1)C1CCCN1C(=O)c1cccs1 (stereo not given)
49) COC(=O)c1ccc(NC(=O)c2ccc(F)cc2)o1
50) CCOc1ccc2[nH]c(=O)c(CN(Cc3ccc(F)cc3)C(=O)c3ccco3)cc2c1
Compound	41	42	43	44	45	46	47	48	49	50
TRPV1 potentiator	10	u	-12	-9	3	-1	x	5	-9	-29
gsp antagonist	8%	-12%	-7%	-1%	7%	-2%	x	5%	7%	-12%
Sfp inh	11%	6%	u	-7%	-23%	14%	x	16%	2%	-8%
gsp ag	5%	-12%	-11%	u	-1%	9%[15.4 µM]	-24%	10%	0%	23%
ClpP mod	-1.5%	-0.7%	-0.4%	-1.9%	-3.3%	-18%	-0.6%	0.8%	1.9%	-20%
CtBP-E1A inh	x	1	-7	4	-3	-25	0	5	1	-13
Menin MLL FP FL	5.9	0.8	1.3	2.0	-2.7	3.1	x	0.7	2.9	0.3

Assay outcomes from PubChem.

Random draw from the library; about 5.3% have a hit in one of these screens.
